Compound activity as filed in PubChem.
MLL AF4-AF9 inh – inhibitors of AF4 peptide binding to AF9, primary screen, biochemical, AlphaScreen, biotin-AF4 peptide, FLAG-AF9, single point; Protein AF-9 (Homo sapiens), P42568; inhibition, % at 10 µM; 350,000 compounds, 0.47% hits;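 active means every replicate reaching a set inhibition limit, whatever the replicate mean, cut at about 25% in these data; inconclusive means mean inhibition reaches that limit but some replicates miss it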;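 further: 0% = plate neutral control median and 100% = total signal loss; the record names both 10 and 1 µM as test concentration; the first replicate is given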
T cruzi inh – inhibitors of intracellular T. cruzi growth, primary screen, luminescence, NIH3T3 host cells. T. cruzi beta-gal in NIH3T3, 90 h. inhibition, % (test concentration not listed). 300,000 compounds, 1.4% hits. AID 1885, 2009;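 active means mean inhibition across valid replicates above about 55%, limit read from the data; inconclusive means mean below that limit but half or more replicates reach it; inactive means mean below it, under half of replicates reach it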;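 further: signal also drops with host cell toxicity which is not excluded here; 0% = plate median of DMSO wells and 100% = zero luminescence signal; higher percent means less beta-gal luminescence so fewer parasites; stock transfer was 50 nL into about 50 µL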
RanGTP-Imp inh – inhibitors of RanGTP-importin-beta interaction, primary screen, biochemical, FRET, CFP-Ran, YFP-importin-beta, homogeneous | 300,000 compounds, 1.1% hits | Ran GTPase (GTP-bound) - importin-beta complex | inhibition, % (concentration not given with the values) | cell-free CFP-Ran/YFP-importin-beta FRET ratio | AID 2216, 2009;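 active means most replicates above 15%; inconclusive means exactly half above 15%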;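 further: 0% = DMSO wells and 100% = Ran loaded with GDP instead of GTP; wells of about 40 µL received 100 nL stock; the first replicate is given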
Calb FLC – C. albicans growth inhibition with fluconazole, primary screen, CaCi-2 strain, Alamar Blue fluorescence; 300,000 compounds, 0.57% hits; C. albicans CaCi-2 (fluconazole-resistant clinical isolate) + fluconazole, 48 h; growth inhibition, % (concentration not given with the values); AID 1979, 2009;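 active means most replicates above 75%; inconclusive means exactly half above 75%; inactive means most below 75%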;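 further: all wells also contain fluconazole at 8 µg/ml as a sub-toxic cotreatment; 0% = median of DMSO wells and 100% = median of geldanamycin control wells; wells of about 8 µL received 7.5 nL stock; the first replicate is given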
LANA-H2B inh – blockers of LANA interaction with H2A/H2B – biochemical, FP readout, HTS, primary screen | Protein LANA1 (Human herpesvirus 8 type P (isolate GK18)), Q9QR71 | cell-free LANA-H2A/H2B peptide, fluorescence polarization | inhibition, % (concentration not given with the values) | 320,000 compounds, 0.6% hits; in the data active means inhibition mostly above about 10%, no sharp cut-off; inactive means mostly below about 6.7%;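 further: stock transfer was 7.5 nL into about 10 µL; 0% = median of vehicle wells and 100% = median of positive control wells; one replicate is shown; the record names a cut of 25% in any replicate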
Target sequence (Q9QR71 whole entry, looked up): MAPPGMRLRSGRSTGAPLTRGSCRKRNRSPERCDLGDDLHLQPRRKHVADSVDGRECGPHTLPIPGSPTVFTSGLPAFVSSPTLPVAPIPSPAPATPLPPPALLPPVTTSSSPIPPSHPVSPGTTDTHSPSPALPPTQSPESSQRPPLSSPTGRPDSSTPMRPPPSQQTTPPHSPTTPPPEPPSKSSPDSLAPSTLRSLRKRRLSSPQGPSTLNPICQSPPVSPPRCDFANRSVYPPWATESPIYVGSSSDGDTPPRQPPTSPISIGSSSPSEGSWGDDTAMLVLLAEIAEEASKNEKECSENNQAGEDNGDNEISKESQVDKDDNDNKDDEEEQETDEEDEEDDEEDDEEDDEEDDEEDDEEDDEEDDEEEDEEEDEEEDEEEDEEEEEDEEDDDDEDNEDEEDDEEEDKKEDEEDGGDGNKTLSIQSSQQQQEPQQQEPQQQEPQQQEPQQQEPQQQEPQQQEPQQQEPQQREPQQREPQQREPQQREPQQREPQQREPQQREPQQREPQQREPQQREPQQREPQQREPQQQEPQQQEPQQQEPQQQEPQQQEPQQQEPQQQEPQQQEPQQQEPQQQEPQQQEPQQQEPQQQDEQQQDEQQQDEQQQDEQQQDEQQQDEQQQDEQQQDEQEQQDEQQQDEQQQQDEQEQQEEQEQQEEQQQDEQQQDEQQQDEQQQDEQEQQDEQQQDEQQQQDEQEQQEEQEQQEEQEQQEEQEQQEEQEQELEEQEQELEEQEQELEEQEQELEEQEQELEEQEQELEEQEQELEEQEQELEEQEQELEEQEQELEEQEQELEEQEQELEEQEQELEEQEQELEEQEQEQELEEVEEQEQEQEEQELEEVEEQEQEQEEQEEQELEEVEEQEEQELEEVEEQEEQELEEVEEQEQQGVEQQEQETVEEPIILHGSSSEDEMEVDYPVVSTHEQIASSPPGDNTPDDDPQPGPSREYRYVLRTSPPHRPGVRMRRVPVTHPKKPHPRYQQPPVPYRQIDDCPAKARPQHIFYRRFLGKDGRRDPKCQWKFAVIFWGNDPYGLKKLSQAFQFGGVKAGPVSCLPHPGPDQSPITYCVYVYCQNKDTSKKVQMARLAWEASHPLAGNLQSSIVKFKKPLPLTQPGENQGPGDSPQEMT
Vif TR-FRET – inhibitors of Vif binding to APOBEC3G peptide, primary screen, biochemical, TR-FRET, GST-Vif 1-94, biotin-A3G peptide, dose response retest (AID 1117319). inhibition, %, or IC50 in µM where a hit was titrated. TR-FRET GST-Vif / biotin-A3G peptide binding; higher % means a stronger effect; test concentration not given here; strong numbers were not always called active. Virion infectivity factor (Human immunodeficiency virus type 1 group M subtype B (isolate …. 260,000 compounds, 0.57% hits;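 active means above the screen mean plus three standard deviations and confirmed in dose response; inconclusive means results disagree or hit not tested in dose response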;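 further: Vif residues 1-94 fused to GST binding biotinylated APOBEC3G peptide 110-148; 0% = full assay without inhibitor and 100% = GST in place of GST-Vif; retest series ran down from 100 µM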
Beta apoptosis – inhibitors of cytokine-induced beta cell apoptosis, primary screen, luminescence. INS-1E cytokine-induced death, ATP luminescence, 48 h; percent of positive-control rescue, neutral wells zero. protection from apoptosis, % (concentration not given with the values). 300,000 compounds, 0.8% hits;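 active means all replicates at 75% or more, or half of them and the mean; inconclusive means half reach 75% but not the mean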;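 further: 0% = cytokine-treated negative control wells and 100% = positive control rescue; higher means more ATP so stronger rescue from cytokine killing; wells of about 40 µL received 100 nL stock; the first replicate is given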
Bfl-1 A1 inh – caspase 3/7 activation in MEF A1-2A-BIM cells, primary screen, A1 inhibitor project, cell-based, luminescence, HTS. Caspase-Glo 3/7 luminescence, 3 h; percent of clofoctol response, vehicle zero. caspase activation, % (test concentration not listed). 330,000 compounds, 0.066% hits;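 active means over half of replicate activation scores above 10%, or exactly half above 10 with the replicate mean above 10; inconclusive means replicate mean below 10 yet half the replicates above 10; inactive means over half of replicates below 10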;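 further: wells of about 30 µL received 50 nL stock; many hits fall short of the cut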
Active calls of the source: *; ? = inconclusive; / = not tested or not shown; & = joins results of further samples.

SMILES	MLL AF4-AF9 inh	T cruzi inh	RanGTP-Imp inh	Calb FLC	LANA-H2B inh	Vif TR-FRET	Beta apoptosis	Bfl-1 A1 inh
COCC(C)n1c(C)cc(C(=O)COC(=O)C2=NN(c3ccccc3)C(=O)CC2)c1C (stereo not given)	/	-5	-0.8	1	-2.2	/	-6	0.1
Cc1cc(C)cc(-n2c(N)c(C(=O)Nc3c(C)n(C)n(-c4ccccc4)c3=O)c3nc4ccccc4nc32)c1	/	56*	-6.2	-5	2.6	/	39	0.7
COc1ccc(CC(=O)N2CCOCC2)cc1	/	-11	-3.1	5	2.1	0%	-7	0.5
NC(=O)CC(NC(=O)Cc1ccc(Br)cc1)c1ccc(N2CCN(c3ccccc3)CC2)c([N+](=O)[O-])c1 (stereo not given)	/	-20	-1.0	-6	1.8	2%	-3	0.6
CC1CC(C)(C)NC(=S)O1 (stereo not given)	-0.3&-2.7	-7&4	0.6&2.1	14&2	3.4&2.2	3%&-7%	0&-6	0.3&0.5
CC/C(=N/N=C(/CC)c1ccc(O)cc1)c1ccc(O)cc1	-0.9	-24	1.4	-10	-2.9	/	0	0.9
Cc1ccc(-n2nnnc2-c2ccccc2)cc1	-1.9	-5	-1.8	22	0.6	/	1	0.2
O=C(c1ccco1)c1cc2c(ccc3ccccc32)oc1=O	/	3	24*	-5	0.7	4%	5	-0.9
COc1ccc(NC(=O)CN2C(=O)COc3ccc(S(=O)(=O)N4CCOCC4)cc32)c(OC)c1	-4.0	-5	-6.0	-11	-6.0	/	-5	0.7
C/C=C/c1ccc(OCC(=O)OCC2=C(C(=O)OCC)C(C)NC(=O)N2)c(OC)c1 (stereo not given)	-1.0	-9	4.8	-3	-0.7	4%	1	1.0
CCCc1cc(=O)oc2cc(C)cc(OCC(=O)NC3CCN(Cc4ccccc4)CC3)c12	1.3	38	8.5	0	-4.4	/	7	1.7
COc1ccc(C(=O)NC(=S)N2CCN(c3ccccc3OC)CC2)cc1OC	-0.9	-26	2.6	-13	-4.5	-4%	-7	0.2
O=C(NNC(=O)c1ccc(Cl)c(S(=O)(=O)Nc2ccc(Cl)cc2)c1)c1ccc(=O)[nH]c1	0.1	-15	4.4	6	-0.8	-7%	-6	0.6
COCCNC(=O)CCN1N=C(c2ccccc2)CCC1=O	0.3	-14	3.5	2	0.7	1%	/	0.0
COc1cc(NC(=O)COC(=O)CNC(=O)c2cc(C)cc(C)c2)c(C)cc1[N+](=O)[O-]	/	2	0.4	6	1.1	/	-5	0.2
Cc1sc2c(c1C)C(=O)/C(=C\Nc1ccccn1)S(=O)(=O)N2C	/	1	-5.2	-9	-1.0	/	-2	-0.4
CCC(C(=O)NCCc1ccc(OC)c(OC)c1)n1nc(C)n2c(cc3occc32)c1=O (stereo not given)	1.9	7	?	4	-3.6	4%	7	-2.8
COC(=O)c1ccc2nc(C(F)(F)F)[nH]c2c1	/	-7	-1.1	1	1.2	6%	2	0.8
NC(=O)c1cc(S(=O)(=O)NCc2cccc(Br)c2)cs1	-9.8	7	-0.7	-23	-2.0	/	-6	2.0
COc1ccc(NC(=O)CSc2nnc(-c3cccs3)n2C)cc1OC	/	4	1.4	3	1.7	-1%	6	-0.4
Cc1cc(NC(=O)C2CCCCC2)nc2c1c(=O)oc1ccccc12	/	-6	1.9	0	2.3	-3%	1	-0.2
Cc1ccc(NC(=O)COC(=O)CN2C(=O)C3CCCCC3C2=O)cc1C (stereo not given)	1.7	/	/	/	2.4	/	-6	-1.8
Cc1cc(C)n2nc(SCCC(=O)NCCc3ccccc3)nc2n1	/	19	-0.6	-23	-1.2	1%	-6	-0.5
Cc1ccc(Cl)cc1NC(=O)c1cc2ccccc2cc1O	-1.8	16	3.9	3	1.9	/	104*	-1.1
O=C(NC1CCCCC1)C(c1ccccn1)N(C(=O)c1csnn1)c1ccccc1F (stereo not given)	-4.5	5	0.0	-8	0.6	23%	4	0.4
Cc1ccccc1NC(=O)C1Cc2ccccc2CN1C(=O)OCc1ccccc1 (stereo not given)	4.5	14	3.6	-3	1.1	-5%	-1	0.3
O=C(CN1CCN(CC(=O)Nc2ccccn2)CC1)Nc1ccccn1	/	-25	?	-18	5.2	18%	-3	1.4
Cc1ccnc2nc(C(=O)OC(C)C(=O)NCc3ccccc3)nn12 (stereo not given)	-0.3	/	/	/	1.9	/	-1	-1.1
CN(C)CCCn1c(=S)[nH]c2ccccc2c1=O	-0.6	-11	0.4	0	1.7	3%	/	-0.3
C=CCNC(=S)Nc1cccc2ccccc12	/	0	1.5	-16	-1.0	11%	-4	-0.3

Shown with values under each structure: 9 of the compounds above
Values in the order – MLL AF4-AF9 inh, T cruzi inh, RanGTP-Imp inh, Calb FLC, LANA-H2B inh, Vif TR-FRET, Beta apoptosis, Bfl-1 A1 inh
> C/C=C/c1ccc(OCC(=O)OCC2=C(C(=O)OCC)C(C)NC(=O)N2)c(OC)c1 (stereo not given)
    -1.0, -9, 4.8, -3, -0.7, 4%, 1, 1.0
> CCCc1cc(=O)oc2cc(C)cc(OCC(=O)NC3CCN(Cc4ccccc4)CC3)c12
    1.3, 38, 8.5, 0, -4.4, /, 7, 1.7
> COc1ccc(C(=O)NC(=S)N2CCN(c3ccccc3OC)CC2)cc1OC
    -0.9, -26, 2.6, -13, -4.5, -4%, -7, 0.2
> O=C(NNC(=O)c1ccc(Cl)c(S(=O)(=O)Nc2ccc(Cl)cc2)c1)c1ccc(=O)[nH]c1
    0.1, -15, 4.4, 6, -0.8, -7%, -6, 0.6
> COCCNC(=O)CCN1N=C(c2ccccc2)CCC1=O
    0.3, -14, 3.5, 2, 0.7, 1%, /, 0.0
> COc1cc(NC(=O)COC(=O)CNC(=O)c2cc(C)cc(C)c2)c(C)cc1[N+](=O)[O-]
    /, 2, 0.4, 6, 1.1, /, -5, 0.2
> Cc1sc2c(c1C)C(=O)/C(=C\Nc1ccccn1)S(=O)(=O)N2C
    /, 1, -5.2, -9, -1.0, /, -2, -0.4
> CCC(C(=O)NCCc1ccc(OC)c(OC)c1)n1nc(C)n2c(cc3occc32)c1=O (stereo not given)
    1.9, 7, ?, 4, -3.6, 4%, 7, -2.8
> COC(=O)c1ccc2nc(C(F)(F)F)[nH]c2c1
    /, -7, -1.1, 1, 1.2, 6%, 2, 0.8

(list continues)
SMILES	MLL AF4-AF9 inh	T cruzi inh	RanGTP-Imp inh	Calb FLC	LANA-H2B inh	Vif TR-FRET	Beta apoptosis	Bfl-1 A1 inh
c1ccc(-c2nc(-c3cccs3)[nH]c2-c2ccccc2)cc1	9.9	26	-61	3	4.2	5%	13	0.3
Cc1ccc(C)c(N(CC(=O)NCc2ccc3c(c2)OCO3)C(=O)CCC(=O)Nc2ccccn2)c1	/	11	1.6	1	2.5	-4%&-4%	2	-0.2
COC(=O)COc1ccc(NC(=O)Cn2nc(-c3ccccc3)c3ccccc3c2=O)cc1	-1.3	1	?	2	0.2	-1%	-2	-0.1
CSc1nc(Nc2ccc(Cl)cc2)c(C#N)c(=O)[nH]1	-14	0	0.6	4	-0.2	/	7	-0.1
Cn1c(C(=O)Nc2ccc(Cl)cc2)cc2cc(Cl)ccc21	-5.2	0	-3.6	33	0.2	/	-2	-0.9
CCN(CC)S(=O)(=O)c1cccc(S(=O)(=O)N2CCCCC2)c1	/	14	6.3	2	-9.0	1%	-3	0.4
CC(C)(C)c1ccc(S(=O)(=O)C(C)(C)C)cc1	-2.4	11	-1.9	-2	-3.2	/	/	?
O=c1[nH]n2c(=O)c3c([nH]c2c1N=Nc1ccccc1)CCC3	/	-18	-1.9	-9	-4.4	?	-2	-0.1
O=C(O)c1ccc2nnn(O)c2c1	-3.5	-6	2.1	-5	1.8	/	-4	-0.2
Cc1ccsc1C(C(=O)NC(C)(C)C)N(C(=O)c1csnn1)c1ccccc1 (stereo not given)	-0.1	-9	3.7	21	4.1	-4%	-2	-0.9
O=C(NCCc1ccc(F)cc1)c1cccs1	/	2	-3.4	-13	-5.9	/	-3	-1.4
O=C(CN(C(=O)Cn1nnc(-c2cccs2)n1)c1ccc2c(c1)OCCO2)NCC1CCCO1 (stereo not given)	/	1	-3.2	-7	11	2%	-2	0.3
Nc1nc(-c2ccco2)c(-c2ccco2)s1	/	3	-2.8	-1	-2.2	0.83µM*	-14	-0.2
O=S(=O)(c1ccc(Cl)c(S(=O)(=O)N2CCCC2)c1)N1CCCC1	1.7	3	0.3	-5	-8.3	8%	-1	0.0
C/C(=N\Nc1cc(N2CCOCC2)nc(C)n1)c1ccc(F)cc1	2.2	37	-4.2	5	-6.1	/	-1	-0.8
COCCN(C(=O)COC(=O)c1ccc2[nH]c(C)c(C)c2c1)c1c(N)n(Cc2ccccc2)c(=O)[nH]c1=O	-4.4	2	4.3	-9	2.0	-5%	-2	-0.3
Cn1cccc1C(=O)OCC(=O)N1CCc2ccccc21	-1.3	/	/	/	-1.0	/	-2	-4.8
CCCCNC(=O)C1CC(c2cccc(F)c2)=NO1 (stereo not given)	-2.7	-11	0.6	3	-11	-8%	-1	-3.7
CCOc1ccccc1NC(=O)CSc1nc2ccccc2c(=O)n1CC1CCCO1 (stereo not given)	-3.0	10	-0.8	-4	3.3	/	-7	0.9
CCOC(=O)N1CCC(NC(=O)c2ccc3c(c2)N=C(CC)c2cc(C)ccc2S3)CC1	2.2	26	-3.1	6	-1.7	/	17	0.6
CC1CCCN(C(=O)C(=O)Nc2ccc3nc4n(c(=O)c3c2)CCCCC4)C1 (stereo not given)	-5.4	3	3.0	1	-0.1	/	-2	-0.1
COc1ccc(-c2nn(-c3ccccc3)cc2C(=O)OCC(=O)c2ccc(C)c([N+](=O)[O-])c2)cc1	1.4	10	-3.7	3	-0.5	-1%	101*	1.6
Cc1ccc(OCC(=O)N2CCc3ccccc3C2)cc1	1.1	-5	-2.0	-41	0.6	/	/	-0.6
CC1CCN(c2ccc3nnc(CCC(=O)N4CCN(c5ccccc5F)CC4)n3n2)CC1	3.6	4	3.9	13	2.6	/	3	?
O=C(CN(C(=O)CNC(=O)c1ccco1)c1cccc(F)c1)NC1CCCCC1	2.5	-1	4.5	-12	0.5	-7%	3	0.4
CCCCC(=O)Nc1ccc(C(=O)NNC(=O)c2cccs2)cc1	-0.2	-13	3.1	-11	-1.6	22%	-5	-1.1
COc1cc(OC)cc(C(=O)Nc2ccc(NC(=O)c3ccco3)c(C)c2)c1	-2.0	11	-1.0	-7	1.6	/	49	-8.4
CN(C)c1nc(C(=O)NN)nc(N(C)C)n1	4.1	5	-0.5	1	-3.2	-1%	-2	0.4

Hits appear at their usual frequency, and some 4.3% of all compounds hit somewhere here.
